Assay outcomes: PubChem BioAssay, ICCB-Longwood Screening Facility, Harvard Medical School
BmaI1 enzyme: BmaI1 acyl-homoserine lactone synthase inhibition – biochemical, fluorescence intensity, with counterscreen (AID 720554). inhibition, %. BmaI1 enzyme assay, fluorescence intensity; hits give high values; test concentration not given here; a few actives read low; strong numbers were not always called active. 12,000 tested, 0.4% active;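 active means both replicates within 2 robust z-scores of the inhibited control and a quiet counterscreen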;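 further: 0% = uninhibited enzyme and 100% = inhibited control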
BmaI1 enzyme counterscreen: also measured in BmaI1 enzyme; calls as there; inhibition, %; measured here: counterscreen; design of the counterscreen not given here;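 first of two replicates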
* hit, by the source's call; & = joins results of further samples.

SMILES	BmaI1 enzyme	BmaI1 enzyme counterscreen
CN(C)C(=O)Cn1c(Cl)nc2c1c(=O)n(C)c(=O)n2C	0	0
Cc1cc(C(=O)NNC2=NCCCCC2)n[nH]1	-9	-8
COc1cc(-c2nnc(SCc3cn4cc(Cl)ccc4n3)o2)cc(OC)c1OC	12	0
Cc1noc(C)c1COc1cccc(C(=O)OCN2C(=O)c3ccccc3C2=O)c1	2	0
CCCCN1C(=O)c2ccc(C(=O)Oc3ccc(-c4nnco4)cc3)cc2C1=O	18	13
Cc1cccc(OCCCC(=O)Nc2ccccc2N2CCOCC2)c1	14	2
COC(=O)c1ccc2c(=O)[nH]c(COC(=O)c3ccccc3NCCO)nc2c1	12	10
CCCC(=O)NC(=S)c1sc(N2CCCC2)nc1-c1cccs1	3	4
CCNc1nc(CN2CCOCC2)nc2sc3c(c12)CCCC3	29	8
NC(=O)c1n[nH]c(=O)c2ccccc12	15	5
N#CC(=C1SC2CS(=O)(=O)CC2S1)c1nc2ccccc2s1 (configuration not stated)	22	11
O=C(CN1CCc2ccccc21)N1CCN(S(=O)(=O)c2ccccc2)CC1	52	20
Cc1cc(C(=O)NCc2ccc(S(N)(=O)=O)cc2)c(C)o1	10	14
Cc1cc(-c2csc(NC(=O)C3CC3)n2)c(C)n1-c1ccc(F)cc1	-5	-13
COC(=O)c1cc(CSc2nnc(Nc3ccc(C)cc3C)s2)oc1C	18	4
CC(NC(N)=O)C(=O)N1CC=C(c2ccccc2)CC1 (configuration not stated)	-17	-2
O=C1CCC(C(=O)N(CC2CCCO2)C2CCS(=O)(=O)C2)=NN1c1c(F)c(F)cc(F)c1F (configuration not stated)	8	9
CC(C)CCNC(=O)c1cc(=O)c2ccccc2[nH]1	16	14
O=C(CCN1C(=O)NC2(CCCC2)C1=O)Nc1ccc(S(=O)(=O)N2CCCCC2)cc1	10	-2
CCC(c1nnc(SCC(=O)N2CCOCC2)o1)N(C)C (configuration not stated)	-12	-2
Cc1ccc(NC(=O)Cc2nc(CN3CCCC3c3cccs3)cs2)cc1 (configuration not stated)	2	3
COc1ccc(Cl)cc1-c1nc(SCC(=O)N(CC(C)C)C2CCS(=O)(=O)C2)n[nH]1 (configuration not stated)	22	14
O=C(O)CSCC(=O)Nc1ccc(-c2cn3ccsc3n2)cc1	30	68
CC(=O)Nc1ccc2c(COC(=O)Cc3coc4cc5c(cc34)CCC5)cc(=O)oc2c1	19	8
CC(=O)N1CCN(C(=O)c2ccc(S(=O)(=O)N3CCCc4ccccc43)cc2)CC1	4	0
Cc1cc(C(=O)COC(=O)/C=C/c2ccco2)c(C)n1C	-1	-5
O=c1cnc2ccccc2n1CCOc1ccc(Br)cc1	16	10
Nc1c(S(=O)(=O)c2ccccc2)c2nc3ccccc3nc2n1-c1ccc2c(c1)OCO2	23	12
Cn1c(SCC(=O)NC2CC2)nnc1C(F)(F)F	11	6
CC(C)[C@H](NC(=O)c1ccco1)C(=O)N(C)Cc1ccc(C(F)(F)F)cc1	12	5
C[C@]12CC(=CO)C(=O)C[C@@H]1CC[C@@H]1[C@@H]2CC[C@@]2(C)[C@H]1CC[C@]2(C)O	14	-4
CC[C@@]1(O)C(=O)OCc2c1cc1n(c2=O)Cc2cc3c(CN(C)C)c(O)ccc3nc2-1	-9	-14
COc1ccc(NC(=O)CC2CC3CCC2C3)cn1 (configuration not stated)	2	0
O=C1CNC(=S)N1C1CCCCC1	-28	-18
COCCNC(=S)N1c2ccccc2CC1C (configuration not stated)	42	8
CN(C)C(CNC(=O)c1ccc2ccccc2n1)c1ccccc1 (configuration not stated)	4	0
Cc1sc(-n2cccc2)c(C(=O)NC2CCCCCC2)c1C	19	18
Cc1ccc(Oc2ccccc2NC(=O)CN2CSCC2=O)cc1	18	12
COc1ccc(CNC(=O)C(C)On2nnc3ccccc32)cc1 (configuration not stated)	10	-2
Nc1ccc(O)c(C(=O)O)c1	68	28
O=C(O)c1ccccc1N=Nc1c(O)[nH]c2ccccc12	10	1
N#Cc1c(N2CCOCC2)nn2cc(C(=O)c3ccccc3O)cnc12	14	-2
O=C(Cc1noc2ccccc12)NC1CCCCCC1	5	0
COCCN=c1scc(-c2cccs2)n1/N=C(\C)c1ccco1	59	28
CN(Cc1cnc2nc(N)nc(N)c2n1)c1ccc(C(=O)N[C@@H](CCC(=O)O)C(=O)O)cc1	0	-6
S=c1nc(NC2CC2)c2ccccc2[nH]1	-8	18
N#CCN1CCN(Cc2ccccc2)CC1	4	0
O=C(Cn1ccc(C(F)(F)F)n1)NC1CCCc2ccccc21 (configuration not stated)	6	-11
O=C(O)CCC(=O)N1CCC(c2ccccc2)=N1	0	-1
COc1cc(CCC(=O)OCC(=O)N2CC(=O)Nc3ccccc32)cc(OC)c1OC	14	2
CN1CCC(=NN=C(c2ccccc2)c2ccccc2)CC1	-20	-9
CCN=c1scc(-c2ccc3c(c2)NC(=O)CO3)n1N=C1CCCC1	14	12
Cc1noc(C)c1CSc1ccccc1C(=O)Nc1ccccc1N1CCCC1	-21	-16
CCOC(=O)c1ccc2nc(CCC(=O)O)c(=O)n(CC)c2c1	6	-4
Cc1ccccc1-c1nnn(CC(=O)NC(=O)NC(C)C)n1	17	10
CN(CC(=O)Nc1ccc2[nH]c(=O)[nH]c2c1)c1ccc2ccccc2c1	26	16
Cc1c(/C=N/NC(=O)Cn2c(C(F)(F)F)nc3ccccc32)cc(C#N)n1C	-8	-19
CC(C)n1cnnc1SCC(=O)Nc1ccc(F)cc1	2	2
CCn1c(=O)c(=O)[nH]c2cc(C(=O)Nc3nc(CN4CCCCC4)cs3)ccc21	13	8
C=C(C)c1cccc(C(C)(C)NC(=O)Nc2ncccn2)c1	12	9

One compound at a time, as listed above:
CC(C)n1cnnc1SCC(=O)Nc1ccc(F)cc1 is listed as BmaI1 enzyme = 2; BmaI1 enzyme counterscreen = 2
CN1CCC(=NN=C(c2ccccc2)c2ccccc2)CC1 is listed as BmaI1 enzyme = -20; BmaI1 enzyme counterscreen = -9
Cc1c(/C=N/NC(=O)Cn2c(C(F)(F)F)nc3ccccc32)cc(C#N)n1C is listed as BmaI1 enzyme = -8; BmaI1 enzyme counterscreen = -19

Molecules above with a thiophene ring, fused or not:
SMILES	BmaI1 enzyme	BmaI1 enzyme counterscreen
CCCC(=O)NC(=S)c1sc(N2CCCC2)nc1-c1cccs1	3	4
CCNc1nc(CN2CCOCC2)nc2sc3c(c12)CCCC3	29	8
Cc1ccc(NC(=O)Cc2nc(CN3CCCC3c3cccs3)cs2)cc1 (configuration not stated)	2	3
Cc1sc(-n2cccc2)c(C(=O)NC2CCCCCC2)c1C	19	18
COCCN=c1scc(-c2cccs2)n1/N=C(\C)c1ccco1	59	28

The listing continues.
SMILES	BmaI1 enzyme	BmaI1 enzyme counterscreen
CCN(c1ccc(C(=O)CSc2nnc(C(F)(F)F)n2C)cc1)S(C)(=O)=O	10	4
Cc1noc(C)c1COc1cccc(C(=O)N2CCN(c3ccccc3)CC2)c1	36	6
Cc1cc(C(=O)Cn2cc(S(=O)(=O)N(C)C)ccc2=O)c(C)n1Cc1ccco1	18	3
Cc1ccc(N2C(=O)/C(=C\c3ccc4c(c3)OCO4)N=C2SCC(=O)N2CCN(C(=O)c3ccco3)CC2)cc1	10	0
O=C(OCC(=O)N1CCCCC1)c1c[nH]c(=O)[nH]c1=O	2	2
CNC(=O)NC(=O)C(Sc1nnc2sc3ccccc3n12)c1ccccc1 (configuration not stated)	17	1
Cc1cc(C(=O)OC(C)C(=O)N2CCc3ccccc32)c2ccccc2n1 (configuration not stated)	-1	0
CN(CC(=O)Nc1ccc(F)c(F)c1F)C(=O)c1cccc(C(F)(F)F)c1	10	4
COc1cccc(OC)c1OC(=O)C(C)Oc1ccc(C)cc1 (configuration not stated)	8	3
CC(C(=O)Nc1ccc2c(c1)OCCO2)n1cc(S(=O)(=O)N2CCCC2)ccc1=O (configuration not stated)	12	8
FC(F)(F)c1nc(NCC(c2ccco2)N2CCCCC2)c2ccccc2n1 (configuration not stated)	13	4
O=C(Cn1cnc2ccc(Cl)cc2c1=O)c1ccc[nH]1	22	2

A portion taken from the entries so far, for reference:
SMILES	BmaI1 enzyme	BmaI1 enzyme counterscreen
Cc1cc(C(=O)COC(=O)/C=C/c2ccco2)c(C)n1C	-1	-5
O=c1cnc2ccccc2n1CCOc1ccc(Br)cc1	16	10
Nc1c(S(=O)(=O)c2ccccc2)c2nc3ccccc3nc2n1-c1ccc2c(c1)OCO2	23	12
Cn1c(SCC(=O)NC2CC2)nnc1C(F)(F)F	11	6
CC(C)[C@H](NC(=O)c1ccco1)C(=O)N(C)Cc1ccc(C(F)(F)F)cc1	12	5
C[C@]12CC(=CO)C(=O)C[C@@H]1CC[C@@H]1[C@@H]2CC[C@@]2(C)[C@H]1CC[C@]2(C)O	14	-4

(list continues)
SMILES	BmaI1 enzyme	BmaI1 enzyme counterscreen
CC(=O)Nc1ccc(NC(=O)CN2CC=C(c3ccccc3)CC2)cc1	12	4
O=C(OCN1C(=O)c2ccccc2C1=O)c1ccc2c(c1)OCCO2	11	7
Cc1sc2ncnc(Sc3nnc(-c4cccs4)n3CC3CCCO3)c2c1C (configuration not stated)	18	2
CN(C)C1(CNC(=S)NCc2ccccc2)CCCCC1	2	6
CN(C)S(=O)(=O)c1cccc(COC(=O)C2=COCCO2)c1	14	5
CC(C)(C)C(O)/C=C/c1ccc2c(c1)OCO2 (configuration not stated)	6	14
O=C1OCCC1Sc1nc2cc(Cl)ccc2s1 (configuration not stated)	18	12
CN(CC(=O)Nc1ccc(F)c(F)c1F)C(=O)/C=C/c1ccco1	8	8
CN(C)c1cccc(C(=O)OCCN2C(=O)c3ccccc3C2=O)c1	28	-4
Cc1nn(Cc2c(Cl)cccc2Cl)c(C)c1CNCC(c1ccco1)N1CCCC1 (configuration not stated)	10	4
CC(NCc1ccc(S(N)(=O)=O)cc1)C(=O)NCc1ccccc1 (configuration not stated)	6	-2
Nc1c(N(C(=O)c2ccc(Br)o2)C2CCCC2)c(=O)[nH]c(=O)n1Cc1ccccc1	6	-2
CC(Oc1ccc(F)cc1)c1nnc(SCC(=O)N2CCNC2=O)o1 (configuration not stated)	8	-4
COC(=O)c1cc(COC(=O)c2ccc(OC(F)(F)F)cc2)oc1C	10	3
CC(C)NC(=O)/C(C#N)=C/c1ccc(-c2ccc(S(=O)(=O)N3CCOCC3)cc2)o1	16	6
O=C(CN1CCN(c2ccc(C(F)(F)F)cn2)CC1)NC1CCCc2ccccc21 (configuration not stated)	7	3
Cc1cc(C(=O)COC(=O)c2ccc3c(=O)n4c(nc3c2)CCCCC4)c(C)n1C1CC1	1	0
c1ccc(-n2nnnc2Oc2ccc(-n3ccnc3)cc2)cc1	18	23
Cc1oc(-c2ccccc2)nc1C(=O)OCc1cc(=O)oc2cc3c(cc12)CCC3	4	5
Cc1cccc(N2CCN(CC(=O)NCC(F)(F)F)CC2C)c1 (configuration not stated)	-10	-10
O=C(CSc1nnc(NC2CC2)s1)NC(=O)c1ccccc1	10	8
CCCCNC(=O)CN1CCN(Cc2cccc(OCC)c2OC)CC1	12	2
O=C(Cn1cc(C(F)(F)F)ccc1=O)NCC1COc2ccccc2O1 (configuration not stated)	12	6
OC1(c2ccc(F)cc2)CSC(=Nc2cccnc2)N1Cc1ccco1 (configuration not stated)	11	12

Two entries drawn at random from the list so far, as already listed:
SMILES	BmaI1 enzyme	BmaI1 enzyme counterscreen
c1ccc(-n2nnnc2Oc2ccc(-n3ccnc3)cc2)cc1	18	23
O=C(Cn1cc(C(F)(F)F)ccc1=O)NCC1COc2ccccc2O1 (configuration not stated)	12	6

(cont.)
SMILES	BmaI1 enzyme	BmaI1 enzyme counterscreen
CC1CCCC(C)N1/N=C/c1ccc(O)cc1 (configuration not stated)	48	11
c1ccc(-n2ncc3c(SCC4CCCCO4)ncnc32)cc1 (configuration not stated)	8	-5
COc1ccccc1NC(=O)N1CCCSc2ccccc21	20	8
c1nc(N2CCN(Cc3ccc4c(c3)OCO4)CC2)c2ccsc2n1	14	-4
COc1cc(-c2nnc(COC(=O)C(O)(c3ccccc3)c3ccccc3)o2)cc(OC)c1OC	8	6
O=C(NC(=O)C1CCCCC1)Nc1ccc(Cl)cc1	13	16
CCCn1c(=O)c2ccccc2n2c(=S)[nH]nc12	84	68
Cc1cc(OCC(=O)NC2CCCCCC2)no1	-2	-6
Cc1oc2c(F)c(F)c(F)c(F)c2c1C(=O)NC1CCCCCC1	11	-1
Cc1csc(N(C(=O)CCc2nc3ccccc3o2)c2ccccc2)n1	11	4
C#CCn1c(C2CC(=O)N(c3cccc(C(F)(F)F)c3)C2)nc2ccccc21 (configuration not stated)	10	14
C[C@H](NC(N)=O)C(=O)N1CCc2ccccc21	10	11
N#Cc1ccccc1COC(=O)CCC(=O)c1cccs1	22	12
COc1ccc2c(COC(=O)c3ccc(C)c(S(=O)(=O)N4CCOCC4)c3)cc(=O)oc2c1	28	2
C[N+]1(C)CCC(OC(=O)C(O)(c2ccccc2)C2CCCC2)C1 (configuration not stated)	5&9	8&20
Oc1ccccc1CNC1CCN(Cc2ccccc2)CC1	-4	-6
NNC(=O)c1nc(-c2ccccc2)n2c1CCCCC2	76	76
Cc1ccc(NC(=O)c2ccc(CN3CCN(C)CC3)cc2)cc1Nc1nccc(-c2cccnc2)n1	4	62
CC(C)Sc1n[nH]c(=S)s1	91	68
Cc1ccc(-n2nc(C)c(/C=N/NC(=O)Cc3csc(C)n3)c2Cl)cc1	4	-2
CCCCn1c(=O)[nH][nH]c1=S	86	60
O=C(Nc1ccccc1OC(F)F)C1=NN(c2nc3ccccc3[nH]2)C(=O)CC1	66	14
N#CCn1c(COC(=O)C2CC(=O)N(CCc3ccccc3)C2)nc2ccccc2c1=O (configuration not stated)	23	6
CCOC(=O)CSc1nnc2ccccn12	8	-6
O=c1[nH]ncc(NCCCc2ccccc2)c1Cl	18	4
CCCn1c(SCCCC(=O)c2cccs2)n[nH]c1=O	6	0

A portion of the library (hit frequency here may not be typical).
